Screening results (PubChem BioAssay)
PrP UTR inh = inhibition of PrP 5' UTR reporter expression | inhibition, % (test concentration not listed) | cell-based PrP 5' UTR mRNA reporter, plate reader | actives 0.35% (n = 340,000);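 active = every replicate at 50% or more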;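 note: 0 = median of the neutral control wells; tested in H4 reporter cells; numbers are from one replicate; inactives centre near -14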
Mtb hypoxia inh = reduces hypoxia-regulated biosensor signal in M. tuberculosis; fluorescence inhibition, % (concentration not given with the values); M. tuberculosis hypoxia-regulated fluorescent reporter, fluorescence; AID 1159583; actives 0.1% (n = 300,000);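 active = 35 to 45% if threefold the growth effect, above 45% if 1.5-fold the growth effect; inactive = the rest, general growth blockers included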;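 note: wells of about 50 µL received 100 nL stock; 0% = vehicle wells and 100% = reference inhibitor wells; whole bacteria with a GFP reporter of the hypoxia response; strong numbers were not always called active; many hits fall short of the cut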
BJeLR viability = kills HRASV12-expressing BJeLR cells. BJeLR (HRASV12) viability, CellTiter-Glo ATP luminescence, 48 h; reference of the scale not given here. actives 0.17% (n = 300,000). inhibition, % (test concentration not listed);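 active = replicate mean above 50%; inconclusive = above 50% but judged a plate artefact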;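 note: 50 nL library stock added to about 25 µL; numbers are from one replicate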
Sa RN4220 lethal = S. aureus RN4220 growth inhibition; AID 1259311; OD600, 16 h; inhibition, % (concentration not given with the values); actives 0.33% (n = 330,000);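 active = z-score of -3 or lower and OD600 up to 0.18 on both plates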;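 note: plate controls were untreated cells for no effect and reference antibiotic for full effect; stock transfer was 100 nL into about 80 µL; one replicate is shown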
Autofluor counter = counter-screen for toxin protease inhibitors: compound fluorescence; actives 3.1% (n = 360,000); compound autofluorescence counterscreen, microsphere flow cytometry; stronger effect = higher value; AID 624483; fluorescence intensity (test concentration not listed);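 active = at least 3 SD above the mean of all compounds, about 16000 in these data; inconclusive = too few beads counted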;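 note: 100 nL of 1 mM stock went into each well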
ugtP null kill = growth inhibition of S. aureus ugtP deletion strain; actives 0.54% (n = 330,000); AID 1259309; S. aureus RN4220 ugtP deletion, OD600 growth, 16 h; some inactives read as strong as hits; growth inhibition, % (test concentration not listed);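 active = z-score under -3 and OD600 up to 0.15 on both plates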;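 note: plate controls were untreated wells for no effect and antibiotic for full effect; wells of about 80 µL received 100 nL stock; the first replicate is given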
Mtb hypoxia inh growth = recorded beside Mtb hypoxia inh, whose call it bears; growth inhibition, %; measured here: M. tuberculosis growth (absorbance);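 0% = vehicle and 100% = reference antibiotic; read after six days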
* = called active by the depositor; ? = inconclusive; nt = not tested or not shown. Compounds were not picked by outcome; 4% or so of the library scored in one or more.

SMILES	PrP UTR inh	Mtb hypoxia inh	Mtb hypoxia inh growth	BJeLR viability	Sa RN4220 lethal	Autofluor counter	ugtP null kill
O=C(O)COc1ccc(S(=O)(=O)c2ccc(OCC(=O)O)cc2)cc1	-10	10	10	5	2.7	?	2
CCc1ccc(N2CC(C(=O)OCC(=O)Nc3ccc([N+](=O)[O-])cc3)CC2=O)cc1 (configuration not stated)	0	-5	4	nt	-0.9	3778	-2
Oc1ccc(C=NNc2ccnc3cc(Cl)ccc23)cc1O	nt	15	8	nt	4.7	nt	3
Cn1c(Cn2c(=O)sc3ccccc32)nnc1SCC(=O)Nc1ccc(Cl)cc1	-25	nt	nt	nt	6.0	5557	11
COc1cc(/C=C/c2ccc3cccc(O)c3n2)c(Br)cc1O	-17	nt	nt	19	nt	3094	nt
COc1ccc(-n2c(SCC(=O)N3CCCCC3C)nnc2-c2cccnc2)cc1 (configuration not stated)	-5	4	8	-1	6.6	5580	-7
CC(Oc1cccc(Cl)c1)C(=O)Nc1cc(S(=O)(=O)N2CCOCC2)ccc1N1CCCC1 (configuration not stated)	-5	nt	nt	10	nt	?	nt
COC(=O)CN1C(CN2CCOCC2)=Nc2ccc(Br)cc2C1c1ccccc1 (configuration not stated)	nt	6	3	2	3.5	3756	6
Clc1ccc(C2CC(c3cccs3)n3ncnc3N2)c(Cl)c1 (configuration not stated)	-5	nt	nt	3	2.1	4788	1
S=C1Cc2ccccc2N1	0	6	-4	-5	-16	5014	20
Cc1sc2ncnc(SCC(=O)N3CCN(C(=O)c4ccco4)CC3)c2c1C	-6	12	9	-4	6.5	7469	6
Cc1cccc(NC(=O)c2c(O)c3cccc4c3n(c2=O)CCC4)n1	nt	1	15	nt	-8.7	nt	-4
Cc1oc2cc(O)cc(C)c2c(=O)c1-c1cnn(-c2ccccc2)c1	-31	nt	nt	1	8.0	4980	1
C=CCN1CCN(c2ccncc2S(=O)(=O)N2CCCCC2)CC1	-8	nt	nt	2	nt	5440	nt
CCNc1nc(NCC)n2c(SCC(=O)Nc3cc(Cl)ccc3OC)nnc2n1	-5	-2	-2	4	4.6	4844	2

Profiles, quoted from the list. Order of values: PrP UTR inh | Mtb hypoxia inh | Mtb hypoxia inh growth | BJeLR viability | Sa RN4220 lethal | Autofluor counter | ugtP null kill
Cc1sc2ncnc(SCC(=O)N3CCN(C(=O)c4ccco4)CC3)c2c1C is entered as -6 | 12 | 9 | -4 | 6.5 | 7469 | 6
COc1cc(/C=C/c2ccc3cccc(O)c3n2)c(Br)cc1O is entered as -17 | nt | nt | 19 | nt | 3094 | nt

The list goes on.
SMILES	PrP UTR inh	Mtb hypoxia inh	Mtb hypoxia inh growth	BJeLR viability	Sa RN4220 lethal	Autofluor counter	ugtP null kill
CCc1cc2c(=O)c(-c3ccc4c(c3)OCO4)coc2c(CN(C)C)c1O	-4	14	1	-2	5.0	3536	8
CCc1sc(C(C2C(=O)CC(C)(C)CC2=O)C2C(=O)CC(C)(C)CC2=O)cc1[N+](=O)[O-]	-4	-5	2	-3	11	1979	8
COC(=O)c1ccc(N=Cc2c(-c3ccccc3)[nH][nH]c2=O)cc1	-9	-1	-4	-6	7.5	2111	6
O=C(OCC(=O)N1CCOCC1)c1ccc(Cl)c(S(=O)(=O)N2CCc3ccccc32)c1	-20	1	1	nt	5.0	4198	-1
COc1ccc(Nc2nc(C)nc3c2oc2ccccc23)c(OC)c1	nt	-3	0	-14	13	3831	3
Cc1ccc(NC(=O)COC(=O)c2cc(Cl)ccc2Cl)c(Br)c1	-16	nt	nt	1	nt	2557	nt
O=C(COc1ccc(N2CC(C(=O)O)CC2=O)cc1)Nc1cccc(C(F)(F)F)c1 (configuration not stated)	-5	4	12	6	8.0	23245*	3
Cc1c(OCC(=O)N2CCC(C(=O)NCCCC(=O)O)CC2)ccc2c1oc(=O)c1ccccc12	-2	8	5	2	2.1	5412	2
CC(=O)NC1C(Oc2ccc(C)cc2)OC2COC(c3ccco3)OC2C1O (configuration not stated)	-16	15	11	6	5.8	2379	7
Cc1cc(NC(=O)CSc2nnc(CNC(=O)c3ccc(F)cc3)o2)no1	-16	4	-3	-10	1.8	5457	9
CCOc1ccc(S(=O)(=O)NCc2ccc(C)cc2)c2cccnc12	-8	15	3	8	5.5	2483	-2
CC1(C)CC(=O)c2cnc3c(C#N)cnn3c2C1	-11	11	2	1	0.1	2547	1
CC1CCC(NC(=O)CCNC(=O)c2ccc(Br)cc2)CC1 (configuration not stated)	-53	22	14	-1	14	4366	23
COc1ccc(CCN2C(=O)CC(N3CCN(C/C=C/c4ccccc4)CC3)C2=O)cc1OC (configuration not stated)	2	2	3	-7	2.6	4039	3
COc1c(F)c(F)c(C(=O)O)c(Nc2cccc(C)c2)c1F	-26	5	2	9	0.1	4419	0
C=CCNC(=O)c1onc(CSc2ccccn2)c1C(=O)NCC=C	5	5	4	2	2.5	2809	-1
CCC(=O)NC(c1ccc(Cl)cc1Cl)c1ccc2cccnc2c1O (configuration not stated)	19	nt	nt	21	nt	4465	nt
O=C(CSc1nc2ccc(Cl)cc2o1)NCc1ccc2c(c1)OCO2	6	nt	nt	-1	-8.6	2949	-9
Cc1ccc(C(=O)C(OC(=O)CNS(=O)(=O)c2ccccc2)c2ccccc2)cc1 (configuration not stated)	-17	4	6	10	3.4	19423*	-3
Nc1nc2cc(Cl)c(Br)cc2o1	-11	3	5	nt	-0.8	3667	-10
COc1ccc(/C=N/Nc2nc(-c3ccc(C)cc3)c(NC(C)=O)s2)cc1	-5	nt	nt	-8	nt	3783	nt
COc1ccc(N2CCN(C(=O)c3cccc(N4C(=O)C5CC=CC(C)C5C4=O)c3)CC2)cc1 (configuration not stated)	-28	-3	4	nt	6.6	10297	-6
O=C(CSC1CC(=O)N(CCc2ccccc2)C1=O)Nc1ccc(Cl)cc1 (configuration not stated)	-23	6	8	11	10	1972	0
Cc1cccc(NC(=O)CSc2nc3ccccc3nc2N2CC(C)OC(C)C2)c1 (configuration not stated)	-30	11	10	0	-10	6827	-8
CCn1c(SCC(=O)Nc2ccc3c(c2)c2ccccc2n3CC)nnc1-c1ccco1	-42	8	6	1	2.3	10071	-22
COc1ccc(NC(=O)CSc2nc(C3CC3)nc3ccccc23)c(OC)c1	-14	0	10	3	-2.2	5696	13
COc1cccc(C2CC(c3cccc(Br)c3)n3ncnc3N2)c1 (configuration not stated)	-34	nt	nt	-3	1.9	5764	-11
CCOC(=O)NN=Cc1ccc(-c2cc(Cl)ccc2Cl)o1	nt	-3	8	nt	1.5	nt	-11
O=C(Nc1ccc(C2=NCCN2)cc1)c1ccc(C(=O)Nc2ccc(C3=NCCN3)cc2)c(Cl)c1	-18	nt	nt	-13	nt	3777	nt
COc1cccc(C=NNC(=O)c2cc3c(OC)c(OC)ccc3[nH]2)c1OC	nt	16	5	nt	3.5	nt	-3
CC(C)=CC(=O)OCC(=O)Nc1ccccc1Cl	-28	7	10	-1	-13	3168	-12
CC(C)(C)NC(=O)C(c1c[nH]c2ccccc12)N(C(=O)Cn1nnc(-c2ccc(F)cc2)n1)c1cccc(O)c1 (configuration not stated)	5	10	7	13	-5.0	2302	-14
O=C(O)CNS(=O)(=O)c1ccc(F)cc1	-4	4	14	-14	4.0	21439*	2
Cc1nc(N)[nH]c(=O)c1CCCNc1ccc(CCCCC2(CCl)OCCO2)cc1	-54	5	8	nt	3.7	3462	11
Cc1nn(Cc2c(F)c(F)c(F)c(F)c2F)c(C)c1NC(=O)c1nn(C)cc1Br	-20	-1	4	3	3.3	5370	7
N#CC1=C(N)Oc2ccc3ccc(O)cc3c2C1c1ccsc1 (configuration not stated)	-26	2	5	-1	11	2188	-17
COc1ccc(C(=O)N[C@H](C(=O)Nc2nc3ccccc3[nH]2)C(C)C)cc1	-21	-11	-8	27	8.5	3760	5
CC1CCCC(=NNc2nc3ccccc3s2)C1 (configuration not stated)	nt	6	4	nt	0.3	nt	6
CCCN1C2CCCC1CC(NC(=O)Nc1ccc(C(C)C)cc1)C2 (configuration not stated)	5	8	10	-1	6.4	6793	11
COC(=O)C1=C(NC(=O)C(C)(C)C)CCS1	-33	6	10	-18	2.9	2531	4
CC=C1COC(C(=O)NCCCN2CCCC2=O)(C(F)(F)F)C=C1C=C(C)C (configuration not stated)	nt	6	7	nt	8.8	nt	0
COc1ccc(-c2cccc(C(=O)Nc3ccccc3C)c2)cc1	-14	11	-3	7	1.9	2367	3
CCCCn1nc2cc(C(=O)NCC34CC5CC(CC(C5)C3)C4)ccc2c1OCC	-14	8	9	10	-18	3097	-19
CC1CCN(CC(=O)Nc2ccccc2C(=O)NC2CC2)CC1	-10	12	5	nt	1.8	3553	1
CCC(Sc1nnc(C)c(=O)[nH]1)C(=O)Nc1cccc2ccccc12 (configuration not stated)	-8	10	7	-10	-2.7	3811	2
Cc1ccc(-c2c(C(=O)NN=Cc3ccncc3)nnn2-c2nonc2N)cc1	nt	-7	3	nt	-0.3	nt	-7
CC(C)n1c(SCC(N)=O)nc2c1c(=O)n(C)c(=O)n2C	-6	9	-4	-9	5.1	9106	11
CNC(=O)c1[nH]cnc1C(=O)Nc1ccc(C)cc1	-14	14	5	-12	6.4	4089	0
Cc1ccc(O)c(C(=O)c2cnn(-c3ccccc3)c2)c1	-36	nt	nt	1	1.3	4649	1
CCCOc1ccc(C=Nn2nnnc2N)cc1OC	nt	11	5	nt	3.6	nt	2
CSc1nc(C)c2c(c1C#N)CCCC2	11	4	4	-4	7.3	2329	-5
CCOc1ccc(-n2c(C)nc(O)c2N=Nc2ccccc2)cc1	-10	8	6	-7	1.9	3633	-3
CC(C)Oc1cccc(NC(=O)c2cccn(Cc3ccc4c(c3)OC(F)(F)O4)c2=O)c1	8	8	26	-4	-11	10002	-26
CC[C@]12c3[nH]c4cc(-c5ccco5)ccc4c3CCN1C(=O)[C@@H](CC(=O)NCc1ccc(OC)c(OC)c1)C[C@@H]2C(=O)N1CCN(C(=O)C2CC2)CC1	-19	-11	12	nt	1.5	3972	-4
O=C(NCCc1cccc(Cl)c1)c1cccs1	-65	6	3	9	-2.4	3901	2
O=C(Cn1cnc2c(cnn2-c2ccc(Cl)cc2)c1=O)NCC1CCCO1 (configuration not stated)	-14	1	5	2	-7.0	2839	-1
Cc1cc(C)c([N+](=O)[O-])cc1-c1ccc(/C=N/c2c(-c3ccco3)nc3ccccn23)o1	-17	nt	nt	6	nt	4751	nt
O=C(O)CCc1ccc(NCc2cccc(Oc3ccccc3)c2)cc1	-4	9	0	-4	14	3057	15
Cc1ccc2c(c1)c1nc3ccccc3nc1n2CCN1CCOCC1	-6	nt	nt	0	-4.9	2248	12
CCc1ccc(-n2c(=O)c3ccccc3n3c(=S)[nH]nc23)cc1	-18	15	6	-1	-2.5	3110	3

Among those listed so far, two have two or more sulfur atoms:
SMILES	PrP UTR inh	Mtb hypoxia inh	Mtb hypoxia inh growth	BJeLR viability	Sa RN4220 lethal	Autofluor counter	ugtP null kill
Cn1c(Cn2c(=O)sc3ccccc32)nnc1SCC(=O)Nc1ccc(Cl)cc1	-25	nt	nt	nt	6.0	5557	11
Cc1sc2ncnc(SCC(=O)N3CCN(C(=O)c4ccco4)CC3)c2c1C	-6	12	9	-4	6.5	7469	6

Going on with the list.
SMILES	PrP UTR inh	Mtb hypoxia inh	Mtb hypoxia inh growth	BJeLR viability	Sa RN4220 lethal	Autofluor counter	ugtP null kill
CC(Oc1ccc(C(=O)NCCc2ccccc2)cc1)C(=O)O (configuration not stated)	-9	-1	3	-11	2.0	11505	8
CN1CCN(C(=O)c2ccc3c(c2)NC(=O)C(C)(C)O3)CC1	-26	5	9	0	-1.3	8073	-2
Cc1ccc(CS(=O)(=O)Cc2ccc(C(=O)NCCCN3CCOCC3)o2)cc1	-16	-4	1	-3	-2.2	11212	-2
CC(C)(C)c1csc(NC(=O)CCc2ccccc2)n1	-27	-2	-2	-1	-3.5	4418	2
Cc1ccc(NC(=O)NC(=O)COc2ccc(Cl)cc2Cl)c(C)c1	-10	9	3	-1	4.7	8589	0
Cc1cnc(NC(=O)CCN2C(=O)C3CCCCC3C2=O)s1 (configuration not stated)	-43	9	8	-11	4.5	5982	4
Cn1c(=S)n(CCC(=O)O)c2ccccc21	-21	3	12	1	1.7	4560	-4
COc1ccc2ccccc2c1C=NNC(=S)Nc1cc(S(=O)(=O)N2CCOCC2)ccc1N1CCOCC1	nt	7	-1	nt	8.6	nt	-1
C=CCn1ccc(O)c(Cc2ccc(Cl)cc2)c1=O	-20	8	8	-17	0.4	3567	10
O=C(CCc1c[nH]c2ccccc12)N1CCCCCCC1	-12	4	-3	3	2.7	5663	-6
